GALR2 ag = activates the human galanin receptor 2; 140,000 compounds, 0.48% hits; GALR2-expressing cells, agonist activation read-out; activation, %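 (tested at 5 µM)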;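 active = above mean plus 3 SD of all compounds, about 5% in these data, not always enough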;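 also: 0% = vehicle buffer wells and 100% = reference agonist at full effect; tested in CHO reporter cells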
Target sequence (O43603 whole entry, looked up): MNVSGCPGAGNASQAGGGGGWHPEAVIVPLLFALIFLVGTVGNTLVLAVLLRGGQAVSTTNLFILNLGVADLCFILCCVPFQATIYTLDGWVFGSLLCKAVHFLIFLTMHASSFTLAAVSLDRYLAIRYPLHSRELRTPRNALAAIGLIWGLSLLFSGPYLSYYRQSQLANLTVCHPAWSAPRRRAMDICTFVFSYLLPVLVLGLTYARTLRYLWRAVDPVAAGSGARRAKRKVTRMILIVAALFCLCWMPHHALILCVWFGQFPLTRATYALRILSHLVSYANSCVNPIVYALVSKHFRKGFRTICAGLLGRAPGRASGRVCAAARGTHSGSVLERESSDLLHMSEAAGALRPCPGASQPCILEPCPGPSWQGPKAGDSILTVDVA
Insulin prom inh = TRM-6 insulin promoter activity inhibition. inhibition, % at 2 µM. 130,000 compounds, 0.9% hits. TRM-6 cells (human fetal islet line), insulin promoter-eGFP reporter, imaging; reporter expression induced with tamoxifen;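 active = inhibition above the mean plus 3 SD, with well images judged a real hit on visual review, cut at about 60% in these data, passing the limit was not always enough; inconclusive = inhibition over the cutoff but images rejected on review; inactive = inhibition not above the cutoff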
PKD1 inh = inhibitors of human PKD1 kinase | Q15139 | PKD1 kinase fluorescence polarization assay | inhibition, %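 (about 10 µM by stock and volumes)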 | 200,000 compounds, 0.056% hits;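 active = inhibition of 50% or more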;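 also: controls were vehicle for no effect and a reference inhibitor for full effect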
RGS16-Gao HTS = RGS16-Galphao interaction regulator (human). O15492+P09471. bead-based flow cytometry RGS16-Galphao binding, fluorescence; actives lie on both sides. binding response (% of control), % at 10 µM. 220,000 compounds, 0.38% hits. AID 1441;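 active = below 25% or above 175%, edge rows of some plates excepted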;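 also: Galphao activated by GDP with aluminum fluoride before binding; 100% = wells without compound and 0% = beads without RGS; some results beyond the cut were filed as inactive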
Target sequence (O15492 whole entry, looked up): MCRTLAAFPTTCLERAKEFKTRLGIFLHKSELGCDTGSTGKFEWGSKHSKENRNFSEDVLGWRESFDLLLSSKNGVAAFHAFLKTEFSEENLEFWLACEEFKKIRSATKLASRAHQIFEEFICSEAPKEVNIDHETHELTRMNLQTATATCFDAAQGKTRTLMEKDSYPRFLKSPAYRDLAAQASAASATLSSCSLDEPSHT
Target sequence (P09471 whole entry, looked up): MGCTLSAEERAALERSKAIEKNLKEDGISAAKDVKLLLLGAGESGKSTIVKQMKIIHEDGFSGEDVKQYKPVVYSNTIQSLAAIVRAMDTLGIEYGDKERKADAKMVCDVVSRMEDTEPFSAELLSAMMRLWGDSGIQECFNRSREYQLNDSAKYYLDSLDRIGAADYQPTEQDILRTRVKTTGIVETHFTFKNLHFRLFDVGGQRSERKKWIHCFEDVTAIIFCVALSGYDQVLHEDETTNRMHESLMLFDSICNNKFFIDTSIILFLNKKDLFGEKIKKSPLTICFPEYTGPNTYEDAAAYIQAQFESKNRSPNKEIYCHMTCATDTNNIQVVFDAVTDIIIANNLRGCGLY
HSV augment = HSV replication enhancement. AID 1956. maximum fold increase. 220,000 compounds, 0.005% hits. HSV replication augmentation in cells, fold increase;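 active = peak rise of 1.5-fold or more in the series; inconclusive = self-fluorescent or not available for retest; tested in PC3 cells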;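 also: first round at 10 µM; read as green reporter fluorescence; hits show the peak of a series up to 25 µM; 1 = signal of infected wells without compound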
Insulin prom inh cell count = second read-out of Insulin prom inh, no call of its own (marks repeat the call); normalized cell count, %; measured here: cell count, toxicity; reference of the scale not given here;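 cells exposed to compound for 48 h; stained nuclei by imaging scaled within each plate; lower means fewer cells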
HSV augment primary fold = also measured in HSV augment; calls as there; fold increase; compound at 10 µM; measured here: primary screen fold increase 10 uM; tested in PC3 cells;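 GFP signal in the first replicate; 1 = infected wells without compound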
Numbers without * were called inactive; i = inactive; ? = inconclusive; . = not tested or not shown.

SMILES	GALR2 ag	Insulin prom inh	Insulin prom inh cell count	PKD1 inh	RGS16-Gao HTS	HSV augment	HSV augment primary fold
COc1ccc(S(=O)(=O)N(C)C)cc1NCC(=O)Nc1ccc(F)cc1F	-0.5	-33.3	94.6	-10.7	108.9	i	1.08
CC(=O)Nc1ccc(S(=O)(=O)Nc2nc(CN3CCOCC3)nc3sc4c(c23)CCCC4)cc1	-2.1	28.1	142.4	-5.9	97.8	i	0.957
CCOC(=O)NCCOC(=O)Nc1ccc(Cl)cc1	.	-18.2	114.8	-3.0	104.9	i	0.92
CCn1nc(C)cc1C(=O)N1CCc2c([nH]c3ccccc23)C1c1cc(F)ccc1F (centres undefined)	.	.	.	-5.4	102.2	i	0.96
CC1CCCN(CCCOc2ccc(Cl)cc2Br)C1 (centres undefined)	0.2	-121.4	104.8	3.5	101.1	i	0.87
O=c1c(C(c2ccccc2)c2c(O)nc3n(c2=O)CCCS3)c(O)nc2n1CCCS2	-1.2	-10.5	57.1	-6.0	99.9	i	1.19
CC1=C(C(=O)OCC2CCCO2)C(c2ccc(F)cc2)NC(=O)N1 (centres undefined)	.	.	.	-11.3	104.1	i	1.07
COc1ccc(OCC(=O)NNC(=O)c2c(-c3ccccc3Cl)noc2C)cc1	.	.	.	.	105.6	i	0.99
O=C(OCc1cc2ccccc2[nH]c1=O)c1ccc([N+](=O)[O-])cc1	.	.	.	.	100.8	i	0.99
O=C(NC1(C(F)(F)F)C(=O)Nc2c1c(=O)[nH]c(=O)n2-c1ccccc1)c1cccnc1 (centres undefined)	-4.2	35.7	167.2	1.8	103.7	i	0.93
COc1cccc(NC(=O)c2ccccc2-c2nc(-c3ccc(F)cc3)no2)c1	-3.0	-83.3	124.5	-8.2	.	i	0.95
COc1ccc(C(=O)/C=C/Nc2cccc(O)c2)cc1	0.1	-80.0	101.8	-3.6	102.3	?	.
CCOC(=O)c1cc2c(=O)n3ccccc3nc2n(CC(C)C)c1=NC(=O)c1c(-c2c(F)cccc2Cl)noc1C	1.1	.	.	-2.0	96.0	i	0.95
Cn1c(=O)oc2cc(S(=O)(=O)NCCC(=O)NC3CCCc4ccccc43)ccc21 (centres undefined)	0.2	-100.0	116.3	6.8	110.9	i	0.87
CCc1ccccc1NC(=O)N[C@H](C(=O)O)C(C)C	-0.1	3.6	73.2	-0.5	161.3	i	0.91
CCn1c(Cc2ccccc2)nnc1SCC(=O)Nc1nc(C)c(C)s1	-1.4	13.9	98.8	-29.6	106.5	i	0.95
COc1ccc(-c2csc(NC(=O)COC(=O)C3=COCCO3)n2)cc1	.	66.7	107.2	-4.0	111.3	i	1
Cc1ccc(OCCC(=O)OCC(=O)Nc2ccc(Cl)cn2)cc1	-0.2	10.7	92.2	-17.1	96.2	i	1.06
CCOC(=O)C1=C(c2ccccc2)N=c2s/c(=C\c3cccc(O)c3)c(=O)n2C1c1cccs1 (centres undefined)	-0.6	.	.	-8.4	114.8	.	.
O=C(c1cnsn1)N1CCC(CO)(Cc2ccc(Cl)cc2)CC1	.	.	.	-1.1	92.6	i	1
COc1ccc(-c2noc(-c3ccccc3C(=O)Nc3cccnc3)n2)cc1	-3.7	50.0	85.1	-3.1	103.5	i	0.97
CCc1ccc(N2CC(O)(c3cccs3)[N+]3=C2SCCC3)cc1 (centres undefined)	.	16.7	66.5	-4.4	103.0	i	0.95
Cc1cc(C)c(-n2c(SCCS(=O)(=O)c3ccc(F)cc3)n[nH]c2=O)c(C)c1	.	.	.	.	95.1	i	0.98
O=C(c1ccco1)N1CCN(C(c2ccccn2)c2nnnn2C2CCCC2)CC1 (centres undefined)	-2.8	-195.2	128.6	-8.0	101.2	i	0.84
CCS(=O)(=O)NCC(c1ccco1)N1CCN(c2ccccc2F)CC1 (centres undefined)	-0.5	-6.2	69.8	-9.7	108.8	i	1.06
CCCC(=O)Nc1cccc(C(=O)Nc2nccs2)c1	-2.4	.	.	-10.5	125.3	i	1.11
c1csc(-c2nc3nc4ccccc4nc3n2Cc2ccc3c(c2)OCO3)c1	5.5	-37.9	99.0	-5.7	99.0	i	0.83
Brc1c(CSc2nc3ccccc3s2)nc2ncccn12	-0.5	.	.	6.1	105.6	i	0.99
CN1CCN(CC(=O)Nc2sc3c(c2C#N)CCC(C(C)(C)C)C3)CC1 (centres undefined)	0.2	64.7	115.8	2.8	99.8	i	0.73
COC(=O)Cc1c(O)ccn(CCc2ccccc2)c1=O	.	0.0	101.6	-4.2	97.8	i	1.06
NC(=O)c1c(-c2ccccc2)oc2ccc(O)cc12	-1.0	36.8	79.7	-2.4	87.8	i	0.96
COc1cccc2cc(C(C)=O)c(=O)oc12	-1.8	17.6	121.9	-5.8	97.9	i	1.06
Cn1cc(-c2ccccc2)cc(C#N)c1=O	.	28.6	100.2	5.9	101.0	i	0.92
Cc1ccccc1-n1cnnc1SCC(=O)Nc1cccnc1Cl	.	25.0	125.6	-1.3	101.9	i	0.86
COc1ccc2c(c1)CCN1C2CCN2C(=O)CCC21 (centres undefined)	.	.	.	.	103.6	i	1.1
COc1ccc(Cl)cc1C(=O)NCc1cn(C)nc1C	-0.1	-48.6	81.9	2.3	97.0	i	1.02
COc1ccc(C(C)=O)cc1COc1ccc(Cl)c(C)c1	.	.	.	.	93.4	i	0.88
CCn1cc(C(=O)Nc2ccc(NC(=O)c3ccco3)cc2)c(=O)c2ccc(C)nc21	-1.9	-37.5	59.9	-0.3	97.6	i	0.93
COc1ccccc1S(=O)(=O)Cc1ccc(C(=O)N2CCN(c3ccccn3)CC2)o1	-1.4	0.0	98.4	-1.5	81.1	i	0.94
O=C1C=CC(=O)N1c1cccc(-c2ccccc2)c1	.	.	.	.	101.4	i	0.92
O=C(Nc1cccc(F)c1)/C(=C\c1cccnc1)NC(=O)c1ccco1	.	.	.	5.4	92.1	i	0.76
COC(=O)c1cc(OC)c(OC)cc1NC(=O)CCCCCN1C(=O)CCC1=O	-1.1	7.9	106.8	-4.8	96.2	i	0.99
CC(C)CC(c1nnnn1C(C)(C)C)N1CCN(C2CCCC2)CC1 (centres undefined)	-1.9	21.4	104.8	-14.9	97.8	i	0.99
O=C(c1ccc(-c2ccccc2)cc1)N1CCN(c2ncccn2)CC1	2.0	26.3	36.4	-5.5	110.4	i	0.973
COc1ccc(C(C)=O)cc1COc1nc(C)nc2ccccc12	.	.	.	-6.9	99.5	i	1.08
CCCc1ccc(C(C)NC(=O)c2cnccn2)cc1 (centres undefined)	-3.4	-8.6	37.5	-9.9	102.5	i	1.01
O=C(CSc1nnc(-c2cccs2)n1Cc1ccccc1)NCc1ccc2c(c1)OCO2	0.6	-46.4	115.4	-6.5	101.4	i	0.99
O=C(O)Cn1ncn(-c2ccc(OC(F)(F)F)cc2)c1=O	.	.	.	-6.7	97.8	i	0.96
Cn1c(=O)oc2cc(S(=O)(=O)N3CCCC3)ccc21	-1.6	.	.	3.4	99.7	i	1.05
Brc1ccc(-c2nnc(-c3ccccc3)c(N3CCSCC3)n2)cc1	-1.0	.	.	13.3	92.2	i	1.01

3 of the entries above in order of their number in HSV augment primary fold, high to low:
Structure	GALR2 ag	PKD1 inh	RGS16-Gao HTS	HSV augment	HSV augment primary fold
Cn1c(=O)oc2cc(S(=O)(=O)N3CCCC3)ccc21	-1.6	3.4	99.7	i	1.05
Brc1ccc(-c2nnc(-c3ccccc3)c(N3CCSCC3)n2)cc1	-1.0	13.3	92.2	i	1.01
COC(=O)c1cc(OC)c(OC)cc1NC(=O)CCCCCN1C(=O)CCC1=O	-1.1	-4.8	96.2	i	0.99

Carrying on.
SMILES	GALR2 ag	Insulin prom inh	Insulin prom inh cell count	PKD1 inh	RGS16-Gao HTS	HSV augment	HSV augment primary fold
CCCOC(=O)c1ccc(NC(=O)C(CC)CC)cc1	-0.7	-31.2	105.7	-4.6	78.8	i	0.91
O=S(=O)(Nc1nc(CN2CCOCC2)nc2sc3c(c12)CCCC3)c1cc(F)ccc1F	2.2	-57.1	134.5	-1.8	100.2	i	1.04
CCOC(=O)NC(=O)C(=CNc1ccccc1C)C(=O)NC(=O)OCC	0.0	-86.2	141.6	-8.2	103.0	i	0.95
COc1cc(/C=C/C(=O)OCC(=O)NC(=O)NC(C)(C)C)ccc1O	.	.	.	.	98.2	i	0.94
CC(NC(=O)CC(O)(C(F)(F)F)C(F)(F)F)c1ccccc1 (centres undefined)	-0.7	-234.5	47.9	-0.2	104.5	i	1.11
NCC(=O)c1cccc2ccc[n+]([O-])c12	.	.	.	.	103.0	i	1.16
Cn1c(=O)c2c(nc(SCC(=O)c3ccc(F)cc3)n2C)n(C)c1=O	.	15.0	108.5	-2.3	111.0	i	0.89
Cc1ccc(/C=N/NC(=O)CC2N=C(Cc3ccccc3)NNC2=O)cc1 (centres undefined)	-2.8	73.3	66.7	-1.8	103.1	i	0.99
C#CCN1C(=O)C(O)(CC(=O)c2ccc(OC)c(OC)c2)c2ccccc21 (centres undefined)	-0.6	-5.3	54.7	4.0	100.3	i	0.83
O=C(Nc1nccs1)C1CCCCN1S(=O)(=O)c1ccccc1 (centres undefined)	.	.	.	.	100.3	i	0.99
CN1C2CCC1CC(NC(=O)CSCc1ccc(Cl)cc1Cl)C2 (centres undefined)	.	.	.	.	99.2	i	0.79
N=c1sccn1CC(=O)Nc1ccc([N+](=O)[O-])cc1Cl	.	.	.	.	99.6	i	1
O=C(CCCCCN1C(=O)c2cccc3cccc(c23)C1=O)NCc1ccco1	.	.	.	.	82.1	i	0.92
CCCOc1ccc(C(=O)N2CCCC2C(=O)O)cc1 (centres undefined)	-2.0	-27.3	120.4	-0.5	110.7	i	0.96
NCC12CC3CC(C1)CC(CN)(C3)C2	-0.7	.	.	0.6	122.0	i	1.05
NS(=O)(=O)c1ccc(NC(=O)COC(=O)COc2ccc(Cl)cc2)cc1	.	.	.	0.3	100.2	i	0.92
Cc1cc(C)cc(NC(=O)/C=C/c2ccc([N+](=O)[O-])s2)c1	-0.2	.	.	-9.1	73.0	i	1
OCCC1CN(CCCn2cccn2)CCN1Cc1ccccc1 (centres undefined)	.	.	.	-7.2	97.8	i	1.02
CCOC(=O)C(C)Sc1ncnc2c1c(-c1ccccc1)cn2-c1ccc(OC)cc1 (centres undefined)	-0.5	.	.	-3.9	103.1	.	.
Cc1nc(CNS(=O)(=O)c2ccc(Oc3ccccc3)cc2)cs1	-0.5	35.7	88.1	4.2	101.2	i	0.84
COc1cc(C)ccc1OCCOCCOc1ccccc1Br	-2.9	.	.	-6.0	100.1	.	.
Cc1cc(OCC(=O)NC(C)C)ccc1Cl	.	41.2	57.6	1.5	94.2	i	1.18
Cc1ccc(S(=O)(=O)NC2c3cccc4cccc(c34)C2Sc2nc(C)cc(C)n2)cc1 (centres undefined)	-0.6	-21.4	115.1	-3.1	97.0	i	0.82
CN1CCN(c2nnc(-c3cccs3)c3ccccc23)CC1	.	.	.	-7.3	98.7	i	0.98
COc1ccc(N(CC(=O)N2c3ccccc3CC2C)S(=O)(=O)c2c(C)nn(C)c2C)cc1 (centres undefined)	-3.0	.	.	16.8	102.2	i	0.51
Cc1cc(C(=O)CSc2nnc(Cc3ccccc3)o2)c(C)n1Cc1ccc2c(c1)OCO2	1.1	31.6	64.8	-5.6	96.0	i	1.13
O=C(c1ccco1)N1CCN(S(=O)(=O)c2cccc([N+](=O)[O-])c2)CC1	.	.	.	-6.2	106.0	i	1.14
O=C(NCC1CCCO1)C1CC(=O)N(C2CCCCCC2)C1 (centres undefined)	-2.1	-16.1	42.4	12.5	100.6	i	0.94
CC(NC(=O)Nc1ccc(F)cc1)C(c1cccs1)N1CCCC1 (centres undefined)	-1.2	.	.	-5.5	107.0	i	1.18
O=C(c1cccs1)N1CCN(C(=O)N2CCOCC2)CC1	-1.9	.	.	-13.5	97.9	i	0.86
CCCCN(CC)CCCNC(=O)c1cn(CC)c2ccc(S(=O)(=O)N3CCc4ccccc4C3)cc2c1=O	.	.	.	-1.8	99.3	i	0.84
Cc1ccc(C)c(OCC(=O)Nc2ccc(N3CCOCC3)cc2)c1	.	.	.	-2.7	95.7	i	0.92
O=C(CSc1nc(-c2ccco2)cc(C(F)(F)F)n1)NCCc1ccccc1	-1.0	-208.6	103.2	0.5	106.1	i	0.99

Single records, as listed above. Order of values: GALR2 ag, Insulin prom inh, Insulin prom inh cell count, PKD1 inh, RGS16-Gao HTS, HSV augment, HSV augment primary fold
`N=c1sccn1CC(=O)Nc1ccc([N+](=O)[O-])cc1Cl` across the screens: ., ., ., ., 99.6, i, 1
`COC(=O)Cc1c(O)ccn(CCc2ccccc2)c1=O` across the screens: ., 0.0, 101.6, -4.2, 97.8, i, 1.06
`NCC12CC3CC(C1)CC(CN)(C3)C2` across the screens: -0.7, ., ., 0.6, 122.0, i, 1.05

Bioassay records deposited in PubChem by several laboratories.
